S aureus helic: inhibitors of S. aureus replicative helicase, primary screen, biochemical, fluorescence unwinding readout; 0.05% of 120,000 active; inhibition, %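 (tested at about 80 µM)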; replicative DNA helicase (DnaC/DnaB), Staphylococcus aureus; purified S. aureus helicase, fluorescence unwinding assay; about half of the hits fall short of the stated cut;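 active = both duplicates at 50% or more, or one of them with a favoured structure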;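 note: 0% = mean of negative control wells and 100% = mean of positive control wells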
MgrA DNA FP: S. aureus MgrA activity modulators, primary screen, biochemical, S. aureus Newman, fluorescence polarization | MgrA-DNA binding | inhibition, %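 (about 10 µg/mL by stock and volumes)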 | 0.13% of 84,000 active;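 active = above 50% in either of two replicates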;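 note: 0% = protein plus DNA without compound and 100% = DNA alone without protein; higher means less MgrA bound to DNA so lower polarization; one replicate is shown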
Numbers without * were called inactive; . = not tested or not shown. The list is partial. The share of hits here may be higher or lower than overall.

S aureus helic | MgrA DNA FP | canonical_smiles
-12 | . | c1cc(Nc2ncnc3sccc23)cc(-c2nnc3n2CCCCC3)c1
14 | -1.7 | COc1cc(SC)ccc1C(=O)N(C)Cc1ccccc1
-3 | . | O=C(Cn1cnc(S(=O)(=O)N2CCCCC2)c1)NCc1ccco1
14 | 0.5 | CC(C)C(=O)c1cc2c(cc1N)OCCO2
15 | . | Cc1ccc(NC(=O)c2cccn(OCc3ccc(F)cc3)c2=O)cc1
-10 | . | Cc1ccc(N2CC(C(=O)OCc3nc(N)nc(Nc4ccccc4C)n3)CC2=O)cc1 (centres undefined)
. | -1.0 | CS(=O)(=O)/C(C#N)=C/c1ccc(-c2cccs2)s1
. | 1.9 | CC(=O)Nc1ccc(NS(=O)(=O)c2ccc(Cl)cc2)c(C)c1
-2 | . | COc1ccccc1N1CCN(C(=O)[C@H](C)N2CCN(c3nc4cc(Cl)ccc4s3)CC2)CC1
12 | -1.2 | CCOc1ccccc1-n1nnnc1SCC(=O)Nc1cc(C)ccc1C(=O)O
4 | . | CCn1c(=O)c(=O)[nH]c2cc(C(=O)NCCSCc3ccco3)ccc21
. | 3.4 | O=C1CCCC(=O)N1c1cc(Cl)cc(Cl)c1
-20 | . | CN1CCCN(Cn2nc3ccccn3c2=S)CC1
22 | 2.4 | O=C(NCCCn1ccnc1)c1nc(-c2ccc(C(F)(F)F)cc2)no1
11 | 1.6 | COc1ccc2oc(=O)cc(CN(C)Cc3ccco3)c2c1
-22 | . | CCN1CCN(Cc2ccc(NC(=O)Cn3ncc4c3-c3ccccc3OC4)cc2)CC1
14 | . | Clc1ccc(-c2noc3ncnc(Nc4ccccc4)c23)cc1
-9 | 0.0 | C[N+]1(C)CCOC12CCCCC2
-4 | . | CC1=C/C(=N\Nc2nc(C)cc(=O)[nH]2)CC(C)(C)C1
-13 | . | Cc1cccc(C)c1OCc1nc2c3cnn(-c4nc5ccccc5s4)c3ncn2n1

The listing continues:
S aureus helic | MgrA DNA FP | canonical_smiles
-16 | -0.9 | Cc1ccc(-c2nc3ccccc3c(=O)o2)cc1
-15 | . | Fc1cccc(Cl)c1-c1nnc2ccc(C(F)(F)F)cn12
-11 | . | CCN(Cc1ccccc1)C(=O)C1CC2CCCN2C12C(=O)Nc1ccccc12 (centres undefined)
0 | . | Cc1cc(C(=O)NN2C(=O)CSC2c2ccc(-n3ccnc3)cc2)c(C)o1 (centres undefined)
4 | . | CN(Cc1ccccc1)C(=O)Cn1ncc2ccsc2c1=O
. | 0.5 | CCOC(=O)/C(C#N)=C1/C=C(C)NC(c2ccccc2O)=N1
. | 81* | O=C1c2ccc(S(=O)(=O)O)cc2-c2nc(-c3ccccc3)nc3ccc(Cl)c1c23
13 | . | O=C(O)Cn1c(SC2CCCCC2)nc2ccccc21
4 | -5.0 | Brc1ccc2[nH]c3c(c2c1)CCCC3NCc1ccccc1 (centres undefined)
7 | 0.3 | CC(C)(CO)NC(=O)c1sc2ccccc2c1Cl
-1 | . | CCN1CCN(Cn2nc(-c3c[nH]c4ccccc34)n(CC3CCCO3)c2=S)CC1 (centres undefined)
. | 2.6 | O=C1c2ccccc2S(=O)(=O)N1CCCCCN1C(=O)c2ccccc2S1(=O)=O
-5 | 1.9 | CC(C)c1ccc(C(C)(C)CO)cc1
-1 | . | N#Cc1ccccc1CSc1ncccc1C(=O)O
-27 | . | Cc1ccc(-n2nc3ccc(NC(=S)NC(=O)c4cc5ccccc5o4)cc3n2)cc1Cl
2 | 0.5 | Cc1ccccc1NC(=O)C(C)Sc1nnc(-c2ccccc2O)o1 (centres undefined)
9 | . | COC(=O)c1cccc(N2C(=O)/C(=C\c3cccnc3)SC2=S)c1
. | 3.4 | COc1ccc(N2C(=O)c3ccccc3NC2c2ccc(OC)c(CSc3ccccn3)c2)cc1 (centres undefined)
0 | . | CC1(C)CC2CC(C)(CN2C(=O)c2cc(-c3ccccc3O)on2)C1 (centres undefined)
31 | . | CCCCN1C(=O)c2[nH]nc(-c3ccccc3O)c2C1c1ccccc1 (centres undefined)

Laid out differently: results already given.
O=C1c2ccc(S(=O)(=O)O)cc2-c2nc(-c3ccccc3)nc3ccc(Cl)c1c23
  S aureus helic = .
  MgrA DNA FP = 81*
Cc1ccc(-c2nc3ccccc3c(=O)o2)cc1
  S aureus helic = -16
  MgrA DNA FP = -0.9
Cc1cc(C(=O)NN2C(=O)CSC2c2ccc(-n3ccnc3)cc2)c(C)o1 (centres undefined)
  S aureus helic = 0
  MgrA DNA FP = .

Going on with the list.
S aureus helic | MgrA DNA FP | canonical_smiles
1 | 0.9 | O=C(CS(=O)(=O)c1ccccc1)Nc1ccccn1
-9 | . | O=C1OCCC1Sc1nc2scc(C3CC3)c2c(=O)n1C1CCCCC1 (centres undefined)
-11 | 2.6 | COC(=O)C1=CN(CC(C)C)C=C(C(=O)OC)C1c1cccc(F)c1
-11 | . | CCNC(=O)Cc1c(OC)ccc2cc(Br)ccc12
4 | 2.0 | CC(C)(C)c1cc(C(=O)CCN2CCCCC2)cc(C(C)(C)C)c1O
. | 0.5 | NS(=O)(=O)c1ccc(Nc2nc(-c3ccccc3)c3cc(Br)ccc3n2)cc1
. | 0.1 | c1ccc(CN2CCC(Nc3ncnc4ccsc34)CC2)cc1
-7 | . | CCCn1c2ccccc2c2cnn(CC(=O)NCc3cccnc3)c(=O)c21
-19 | . | c1ccc(CN2CCCCC2)cc1
. | -2.1 | CSc1nc(-c2ccc(Cl)cc2)nc(N)c1-c1ccccc1
-2 | 4.0 | Oc1c(C(c2ccncc2)N2CCCC2)ccc2cccnc12 (centres undefined)
. | 49 | O=C(O)c1cc2c3c(c1)C1C=CCC1C(c1ccccc1)N3CC1CC=CC21 (centres undefined)
9 | -2.8 | CC1CCC(NC(=O)c2ccccc2C(=O)O)CC1 (centres undefined)
-22 | 1.0 | Cn1c(CC#N)nc2ccccc21
. | 2.8 | CSc1nn(-c2ccccc2)cc1C(=O)Sc1ccccn1
4 | . | N#CCN1CCCC(C(N)=O)C1 (centres undefined)
-6 | 3.2 | COc1cccc(-n2c(C)c3c(OC)cccc(=O)c3c2C)c1
. | 0.1 | Cc1ncc(S(=O)(=O)C(C)(C)C)c(N)n1
. | 6.9 | O=C1CCc2cccc3cccc1c23
17 | . | O=C(NC1CCCC1)c1cc(-c2ccco2)on1

Following part:
S aureus helic | MgrA DNA FP | canonical_smiles
15 | 0.4 | COc1ccc(Nc2nc(N)nc(CN3CCCCC3)n2)cc1
8 | -0.6 | CC(C)(C)c1cc(CN2CCOCC2)c(C(=O)O)o1
-37 | . | CSc1nsc2nc(=O)c(/C=C3\C=CC(=O)C(O)=C3)c(N)n12
1 | . | CCS(=O)(=O)c1ccccc1C(=O)Nc1nc(-c2ccc3c(c2)OCCO3)cs1
20 | . | CCN(CC)P(=O)(Nc1ccccc1Br)c1ccc(N(C)C)cc1NC(=O)c1ccco1 (centres undefined)
. | 5.4 | COc1ccccc1NC(=S)NNC(=S)NC1CC2C=CC1C2 (centres undefined)
13 | 0.0 | CC1=C(C(=O)N2CCCCC2)C2(CCCCC2)OC1=O
22 | 0.7 | C=CCN(CC=C)C(=O)CSc1nnc(N)s1
-10 | 1.7 | CN1/C(=C2/S/C(=N\c3ncn[nH]3)N(Cc3ccccc3)C2=O)Sc2ccccc21
1 | 1.3 | CCc1cc(=O)oc2c(C)c(OCC(N)=O)ccc12
1 | 0.1 | CCN1CCN(C(=O)c2cccc(Nc3nc4ccccc4n4nnnc34)c2)CC1
-6 | . | COc1cc2nc(CNc3ccc(C)cc3)[nH]c(=O)c2cc1OC
-2 | . | C/C(=N\N)c1cccs1
3 | -0.3 | COc1cccc2c1OC1=C(C(=O)CCC1)C2C1=C(O)CCCC1=O (centres undefined)
1 | . | CCCCn1c(N)c(N(CCOC)C(=O)CN2CCCCCC2)c(=O)[nH]c1=O
2 | . | O=S(=O)(c1ccc2nnn(OCc3cccc(F)c3)c2c1)N1CCCCC1
2 | -1.1 | O=C(NC1CCCCCC1)C1CC1
2 | 1.3 | CC(=O)N1c2ccccc2C(=O)C1NC(N)=S (centres undefined)
16 | 0.5 | COc1ccc(-n2nc(C(=O)Nc3cc(C)on3)c3c4ccccc4n(C)c3c2=O)cc1Cl
8 | 17 | CC(C)(C)C(=O)NC1CCN(S(=O)(=O)c2ccc(C(F)(F)F)cc2)CC1

Retrieved one by one from above (2):
S aureus helic | MgrA DNA FP | canonical_smiles
16 | 0.5 | COc1ccc(-n2nc(C(=O)Nc3cc(C)on3)c3c4ccccc4n(C)c3c2=O)cc1Cl
2 | 1.3 | CC(=O)N1c2ccccc2C(=O)C1NC(N)=S (centres undefined)

Next section.
S aureus helic | MgrA DNA FP | canonical_smiles
10 | 8.1 | CCC(=O)Nc1cccc(NC(C)=O)c1
. | -1.1 | c1ccc(CN2CC(c3nn[nH]n3)CN(Cc3ccccc3)C2)cc1
18 | -5.6 | COc1ccc(CN(CCCN)CCC2(c3ccccc3)CC(C)N(C)CC2C)cc1OC (centres undefined)
10 | . | N#Cc1c(N2C(=O)C3C4C=CC(C4)C3C2=O)sc2c1CCC2 (centres undefined)
-21 | . | COC(=O)c1sc2ccccc2c1NC(=O)c1ccc2c(c1)OCCO2
6 | -0.8 | O=C(CSc1nc2c(c(C(F)(F)F)n1)CCc1ccccc1-2)N1CCCC1
10 | . | CCOC(=O)N1CCC(Nc2nc3ccc(C)cc3nc2-n2nc(C)cc2C)CC1
-19 | . | O=C(C1=C(O)C(=O)N(Cc2cccnc2)C1c1ccc(F)cc1)c1cccs1 (centres undefined)
3 | 1.3 | c1ccc2c(c1)nnn2CNCn1nnc2ccccc21
. | -0.7 | CNC(=O)c1ccccc1Sc1ccccc1
-21 | . | OCCN1CCN(CC(O)COCc2ccc(Cl)cc2)CC1 (centres undefined)
-10 | . | O=C(C1CCN(S(=O)(=O)c2cnc[nH]2)CC1)N1CCN(Cc2ccc3c(c2)OCO3)CC1
-4 | 18 | CCC1CCCCN1S(=O)(=O)c1ccc(S(=O)(=O)n2cnc3cc(C)c(C)cc32)cc1 (centres undefined)
8 | . | COc1cc(C(=O)NCC2CCCO2)cc(OC)c1OC (centres undefined)
-4 | . | COc1ccc(OC)c(NS(C)(=O)=O)c1
6 | 0.8 | N/C(=N\OC(=O)CC1CCCCC1)c1ccccc1
. | -0.8 | O=c1[nH]c(=O)n(-c2ccccc2)c(O)c1C=NCCO
14 | -8.1 | Cn1c(SCC(=O)NCc2ccco2)nnc1-c1c[nH]c2ccccc12
3 | -0.1 | CC(C)Cc1ccc(/C=C/C(=O)N2CCCC2)cc1
27 | . | CCCNC(=O)NNc1cccc(C)c1

Laid out differently: entries from further up
smiles | S aureus helic | MgrA DNA FP
CCCCN1C(=O)c2[nH]nc(-c3ccccc3O)c2C1c1ccccc1 (centres undefined) | 31 | .
O=C(CS(=O)(=O)c1ccccc1)Nc1ccccn1 | 1 | 0.9
O=C1OCCC1Sc1nc2scc(C3CC3)c2c(=O)n1C1CCCCC1 (centres undefined) | -9 | .

(continued)
S aureus helic | MgrA DNA FP | canonical_smiles
22 | . | Cc1ccc(-n2nc(C)c(C(=O)N(Cc3ccccc3)C(C)C)c2-n2cccc2)cc1
3 | . | Cn1nc(C(=O)Nc2cccc3ccccc23)ccc1=O
. | 3.3 | COc1ccc(C2CC(=O)C3=C(C2)Nc2ccccc2NC3c2cc(Br)c(O)c(OC)c2)cc1OC (centres undefined)
-1 | . | CC(C)(C)NC(=O)/C=C/c1c(Cl)nc2sccn12
5 | . | COC(=O)c1ccc(COC(=O)c2cc(C)oc2C)cc1
-7 | 18 | CCc1cc(C)cc(OCCn2cc(C=C3C(=O)NC(=O)NC3=O)c3ccccc32)c1
. | 6.8 | CCOc1cc(C=C2C(=O)NC(=O)NC2=O)ccc1OCc1ccc([N+](=O)[O-])cc1
. | -2.3 | COc1ccc(/C(C#N)=C/c2ccc3c(c2)OCO3)cc1
-6 | -1.0 | COC(=O)C(NC(=O)c1cn(-c2ccccc2)nc1-c1ccc(Cl)cc1)C(C)C (centres undefined)
15 | 0.7 | NC(=O)C1CCN(CC(=O)Nc2ccccc2)CC1
. | 0.4 | COc1cccc(C(=O)C2CC2c2ccc(Cl)cc2)c1 (centres undefined)
. | 0.1 | CCOC(=O)c1ccc(N=C2SC(C(=O)Nc3ccc(C)c(Cl)c3)CC(=O)N2C)cc1 (centres undefined)
. | -0.1 | Cc1cc(N=Cc2cccnc2)no1
4 | -1.2 | CCC(C)NC(=O)c1cc(-c2ccc(F)cc2)no1 (centres undefined)
-7 | . | O=C(Nc1ccc(F)cc1)c1ccc2ccccc2c1
6 | . | O=C(NC(=O)c1ccccc1)OCC1CCCN2CCCCC12 (centres undefined)
11 | -7.1 | COc1ccc(CNC(=O)C(NS(=O)(=O)c2ccc3nc(C)sc3c2)C(C)C)cc1 (centres undefined)
8 | -0.8 | CN(C)CC1(c2ccccc2)CCCC1
5 | -1.9 | CCCNc1nc(NCC)nc(OC)n1
6 | . | Cc1ccc(C(C)C)cc1Oc1cc(Cl)nc(N)n1

Taken from above.
In MgrA DNA FP, `Cc1cc(N=Cc2cccnc2)no1` reads -0.1
In MgrA DNA FP, `COC(=O)C(NC(=O)c1cn(-c2ccccc2)nc1-c1ccc(Cl)cc1)C(C)C` (centres undefined) reads -1.0
In S aureus helic, `O=C(NC(=O)c1ccccc1)OCC1CCCN2CCCCC12` (centres undefined) reads 6

More results.
S aureus helic | MgrA DNA FP | canonical_smiles
22 | -0.2 | COc1ccc(NC(=O)C(c2ccc(OC)cc2)N(C)C(=O)Cc2c[nH]c3ccccc23)cc1 (centres undefined)
7 | . | CCOc1ccccc1-n1nnnc1SCC(=O)c1ccc(CNC(C)=O)o1
-3 | 16 | CCOC(=O)C1Cc2ccccc2CN1 (centres undefined)
2 | . | COc1cc(OC)c(NC(C)C(=O)N(C)C2CCCCC2)cc1Cl (centres undefined)
-8 | . | NCc1cccc(C(F)(F)F)c1
-1 | . | CC(=O)OC1(c2ccccn2)COc2ccccc2O1 (centres undefined)
4 | 0.0 | CSc1ncc(C(=O)NC2CCCCC2)c(C)n1
16 | -3.0 | Cc1cc(C)n(CC(=O)N2CCc3ccccc32)c(=O)c1C#N

High-throughput results deposited in PubChem BioAssay by ICCB-Longwood Screening Facility, Harvard Medical School.
